From PubChem
BasE inh – BasE siderophore enzyme inhibitors, primary screen, biochemical, Acinetobacter baumannii ATCC 17978, fluorescence polarization. 84,000 compounds, 0.1% hits. inhibition, % (concentration not given with the values). AID 485350, 2010. purified BasE, fluorescence polarization binding displacement;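 active means both replicates above 25% with normal brightness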;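 further: 0% = negative plate control signal and 100% = positive plate control signal; stock transfer was 100 nL into about 30 µL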
LANA-nucl inh – inhibitors of KSHV LANA-nucleosome binding, primary screen, biochemical, fluorescence polarization, FITC-LANA1-23, chicken nucleosomes | z-score (concentration not given with the values) | AID 720717, 2013 | 51,000 compounds, 0.3% hits | FITC-LANA1-23 / chicken nucleosome fluorescence polarization; hits give low values;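 active means both repeat wells score below -2 in polarization z-score versus plate sample wells, excluding overly bright wells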;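 further: 100 nL library stock added to about 30 µL; numbers are from one replicate; some results filed as inactive read as strong as hits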
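Assay system: purified chicken nucleosomes with FITC-labelled LANA N-terminal peptide (1-23) / Probe or stimulus: 50 nM FITC-LANA1-23 probe / Compound dosing: pin-transferred compound, 100 nL / Times: compound with peptide–nucleosome mix 10–45 min at room temperature / Technique: fluorescence polarization, 480 nm excitation, 535 nm parallel and perpendicular emission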
* marks the source's active call; other numbers are inactive results; / = no result given. Only part of the results is shown; the hit share may differ from the screen's.

SMILES	BasE inh	LANA-nucl inh
COc1ccc(C2=N/C(=C\c3ccc(-c4ccc(S(=O)(=O)Nc5ncccn5)cc4)o3)C(=O)O2)cc1	-44	/
CC1CCN(C(=S)c2ccc(O)cc2)CC1	1.2	0.9
O=S(=O)(Nc1nc2ccc(S(=O)(=O)N3CCCCC3)cc2s1)c1ccccc1	12	-0.16
C=CCn1c(SCc2cc(=O)[nH]c(C34CC5CC(CC(C5)C3)C4)n2)n[nH]c1=O	1.3	0.29
O=C(CN1CCN(S(=O)(=O)c2ccc3c(c2)OCCCO3)CC1)N1CCC(c2ccccc2)=N1	2.4	/
COc1cc(=O)[nH]c(SC(C)C(=O)Nc2ccccc2)n1 (stereo unspecified)	-0.1	-1.5
NC(=O)C1CCCN(Cc2ccc(Cl)cc2)C1 (stereo unspecified)	-0.1	-0.068
CC(C)c1ccc2[nH]c3c(c2c1)CCCC3=O	1.7	/
CCOC(=O)c1c(NC(=O)/C=C/C(=O)O)sc2c1CCN(C(C)=O)C2	0.6	0.32
O=C(CN(C(=O)C1CSC(=O)C1)c1ccccc1F)NCc1ccc2c(c1)OCO2 (stereo unspecified)	0.0	0.75
N#Cc1ccc(NC(=O)CN2C(=O)CCC2=O)cc1	-4.6	/
OC[C@H]1O[C@@H](n2cnc3c(N[C@H]4CCC[C@@H]4O)ncnc32)[C@@H](O)C1O (stereo partly specified)	/	-0.63
Cc1cc(NC(=O)NCc2ccccc2)no1	1.1	-1.3
O=c1oc2ccccc2c2oc3cc(O)c(O)cc3c12	5.5	-0.54
CC(C#N)Sc1nnc(-c2cccnc2)n1C1CCCCC1C (stereo unspecified)	2.0	/
Cc1ccc2nc(COC(=O)c3ccc(OCc4c(C)noc4C)cc3)cc(=O)n2c1	1.7	/
O=C(NCCc1cnc[nH]1)c1cccs1	0.5	-0.45
O=c1c(/C=N/NC2CCS(=O)(=O)C2)c(N2CCCCC2)nc2ccccn12 (stereo unspecified)	-2.3	/
COC(=O)C1=C(C)NC(C)=C(C(=O)OC)C1	0.0	/
CCOc1ccc(-n2c(O)c(/C=N/Nc3nnc(C)c(=O)[nH]3)c3ccccc3c2=O)cc1	-14	/
Cc1cc(-c2c(C(=O)Sc3ccccc3)c(C)nn2-c2ccccc2)no1	0.3	/
Cc1nn(CCCC#N)c(=O)c2cc3sccc3n12	1.4	-0.53
Cc1ccc(CN(Cc2cccnc2)C(=O)Nc2ccccc2)cc1	-0.1	-0.13
N#Cc1nncn1CN1CCN(S(=O)(=O)c2cc(C(F)(F)F)cc(C(F)(F)F)c2)CC1	4.5	/
O=C1Nc2ccccc2C1=Nc1ccc(-c2nnc3n2CCCCC3)cc1	-0.8	/
Nc1nc(Cc2ccc(F)cc2F)no1	-1.7	/
N#CCc1nnc2n1CCCCC2	-0.1	/
CCCC1C2CN(Cc3ccccc3)CC=C2C(C#N)=C(N)C1(C#N)C#N (stereo unspecified)	23	-4.6*
C=CCSc1ncnc2c1cnn2-c1ccc(Cl)cc1	-1.9	-0.067
O=C1c2ccccc2C(=O)c2c1oc1c3c(ccc21)OCN(CC1CCCO1)C3 (stereo unspecified)	5.1	/

Three entries out of the list above, sorted by the number in LANA-nucl inh, lowest first.
| SMILES | LANA-nucl inh |
| --- | --- |
| Cc1nn(CCCC#N)c(=O)c2cc3sccc3n12 | -0.53 |
| Cc1ccc(CN(Cc2cccnc2)C(=O)Nc2ccccc2)cc1 | -0.13 |
| C=CCSc1ncnc2c1cnn2-c1ccc(Cl)cc1 | -0.067 |

Four entries picked at random from the list so far, as already listed:
SMILES	BasE inh	LANA-nucl inh
CCCC1C2CN(Cc3ccccc3)CC=C2C(C#N)=C(N)C1(C#N)C#N (stereo unspecified)	23	-4.6*
Cc1ccc(CN(Cc2cccnc2)C(=O)Nc2ccccc2)cc1	-0.1	-0.13
O=c1c(/C=N/NC2CCS(=O)(=O)C2)c(N2CCCCC2)nc2ccccn12 (stereo unspecified)	-2.3	/
CC(C#N)Sc1nnc(-c2cccnc2)n1C1CCCCC1C (stereo unspecified)	2.0	/

Continued.
SMILES	BasE inh	LANA-nucl inh
O=C(NC1(C(=O)O)CCCCC1)c1cccs1	0.5	0.082
COc1ccc(-c2c(C#N)c(=O)n3c(sc4ccccc43)c2C#N)cc1	-4.1	/
COc1ccc(-c2ccc(C#N)c(=O)[nH]2)cc1	/	-1.5
O=C(CSc1nc2ccccc2o1)N1CCCc2ccccc21	3.2	0.6
O=C(Nc1ccccc1)NC1CCN(CCCN2C(=O)c3ccccc3C2=O)CC1	-1.1	0.12
CCSc1ccccc1C(=O)Nc1nc2ccccc2c(=O)[nH]1	-0.7	0.23
O=C1N/C(=C/c2ccc(C(F)(F)F)cc2)C(=O)N1c1ccccc1	1.0	/
CC1(C)C2CCC1(CS(=O)(=O)N1CCN(Cc3ccccc3)CC1)C(=O)C2 (stereo unspecified)	1.4	-0.66
COc1ccc(CCC(=O)Nc2ccc(S(=O)(=O)N(C)C)cc2)cc1OC	3.9	/
NS(=O)(=O)c1cc(C(=O)OC2CCOC2=O)ccc1Cl (stereo unspecified)	1.7	/
Nc1nc(SCC(=O)c2ccc3c(c2)OCCO3)nc(-c2ccccc2)n1	1.5	/
Cc1ccc(NC(=O)COn2nnc3ccc(S(=O)(=O)N(C)C)cc32)cc1F	-0.1	/
CC(C(=O)O)c1nn(C)c(=O)c2ccccc12 (stereo unspecified)	-0.5	1.6
CCOC(=O)c1c(C)nc2c(c1C)c(=O)oc1ccccc12	1.6	0.41
CCCNC(=O)NC1CCC(CC)CC1 (stereo unspecified)	-0.3	-1.1
Cc1nn2c3c(cnc2c1-c1ccccc1)C(=O)CCC3	1.6	-0.6
Cc1cc(C)c(NC(=O)CSc2nnc(CNC(=O)c3c(F)cccc3Cl)o2)c(C)c1	6.9	0.046
Cc1cc(-c2ccccc2)n[nH]1	-0.1	-0.2
O=C(c1ccc(Cl)cc1)N(Cc1cccs1)C1CCS(=O)(=O)C1 (stereo unspecified)	0.2	-0.76
CCSC1=NCN(CCCC(=O)O)CN1	2.5	0.049
COCCn1c(C)cc(C(=O)COc2ccc3c(c2)OCO3)c1C	-0.3	/
O=C(O)CCc1nn2cnc3sc4c(c3c2nc1=O)CCCC4	-2.1	0.8
O=C1c2ccncc2C(=O)N1c1ccc(N2CCOCC2)cc1	3.0	-0.74
COC(=O)Cn1cnc2c(cnn2-c2ccccc2C)c1=O	0.8	-0.34
Cn1c(C2COc3ccccc3O2)n[nH]c1=S (stereo unspecified)	4.4	/
CCOC(=O)c1cc2c(ccn2-c2ccc(F)cc2)n1CC(=O)Nc1ccc(OC)cc1	5.9	0.43
CN(C)C(CNC(=O)c1ccc(S(=O)(=O)N(C)C)cc1)Cc1ccccc1 (stereo unspecified)	-2.8	/
CC1CCc2ccccc2N1S(=O)(=O)c1ccc(CCC(=O)O)cc1 (stereo unspecified)	-0.4	/
COC(=O)c1ccccc1-n1cnc2ccccc2c1=O	0.0	0.37
CC1=NCCN1CCNC(=O)Nc1cc(C)cc(C)c1	-1.9	/

Gathered by group: those above containing a halogen.
SMILES	BasE inh	LANA-nucl inh
NC(=O)C1CCCN(Cc2ccc(Cl)cc2)C1 (stereo unspecified)	-0.1	-0.068
O=C(CN(C(=O)C1CSC(=O)C1)c1ccccc1F)NCc1ccc2c(c1)OCO2 (stereo unspecified)	0.0	0.75
N#Cc1nncn1CN1CCN(S(=O)(=O)c2cc(C(F)(F)F)cc(C(F)(F)F)c2)CC1	4.5	/
Nc1nc(Cc2ccc(F)cc2F)no1	-1.7	/
C=CCSc1ncnc2c1cnn2-c1ccc(Cl)cc1	-1.9	-0.067
O=C1N/C(=C/c2ccc(C(F)(F)F)cc2)C(=O)N1c1ccccc1	1.0	/
NS(=O)(=O)c1cc(C(=O)OC2CCOC2=O)ccc1Cl (stereo unspecified)	1.7	/
Cc1ccc(NC(=O)COn2nnc3ccc(S(=O)(=O)N(C)C)cc32)cc1F	-0.1	/
Cc1cc(C)c(NC(=O)CSc2nnc(CNC(=O)c3c(F)cccc3Cl)o2)c(C)c1	6.9	0.046
O=C(c1ccc(Cl)cc1)N(Cc1cccs1)C1CCS(=O)(=O)C1 (stereo unspecified)	0.2	-0.76
CCOC(=O)c1cc2c(ccn2-c2ccc(F)cc2)n1CC(=O)Nc1ccc(OC)cc1	5.9	0.43

(further entries)
SMILES	BasE inh	LANA-nucl inh
CN1/C(=C\C(=S)NC(=O)c2ccco2)C(C)(C)c2ccccc21	-0.3	/
CCN(CC)CCn1c(NCc2ccncc2)nc2ccccc21	1.0	0.14
N#Cc1ccc(CN2CCN(CC(=O)NC(=O)Nc3ccccc3F)CC2)cc1	4.2	/
CCOc1ccccc1NC(=O)COC(=O)CCc1nc(=O)c2ccccc2n1C	0.5	/
N#CC1=C(N)Nc2c(oc(CO)cc2=O)C1c1conc1-c1ccc(F)cc1 (stereo unspecified)	0.4	0.44
Cn1c(=O)c2nc(NCc3ccccc3)cnc2n(C)c1=O	18	/
Cc1cc(=O)oc2cc(OC(=O)c3cc(F)c(F)c(F)c3F)ccc12	2.9	/
CN1C(=O)Cc2ccccc2C1=O	5.5	-0.17
COCC(C)n1c(COc2ccccc2F)n[nH]c1=S (stereo unspecified)	-0.1	/
O=C(O)COc1ccc(/C=C2/SC(=O)NC2=O)cc1	-1.8	1
O=C(c1ccc(S(=O)(=O)N2CCCCC2)cc1)N1CCN(c2ccccc2F)CC1	-0.8	-0.16
COC(=O)C1C(=O)c2c([nH]c(C(=O)OC3CCCCCC3)c2C)CC1C (stereo unspecified)	1.9	-0.56
O=C(Cn1ncc2c(=O)oc3ccccc3c21)NCCN1CCN(c2ccccc2F)CC1	0.9	-0.23
CCOC(=O)C1CCCN(C(=O)CCS(=O)(=O)Cc2ccccc2)C1 (stereo unspecified)	-0.2	-0.15
O=C(C1CC(c2ccc(Cl)cc2)=NO1)N1CCCC1 (stereo unspecified)	1.3	0.62
Cc1ccc(NC(=O)CCn2c(=O)sc3ccccc32)cc1C	2.2	-1.1
CC1(C)CC2CC(C)(CN2C(=O)Cc2ccccc2)C1 (stereo unspecified)	1.7	-0.49
CC(C)(C)Nc1cccccc1=NCc1ccccc1	14	/
Cc1cccc(C(=O)OC(C)C(=O)NCC2CCCCC2)c1O (stereo unspecified)	0.8	/
CCOC(=O)c1[nH]c(COC(=O)c2ccc3c(c2)OCO3)c(C(=O)OCC)c1C	-2.0	/
N#C/C(=C/c1ccccc1)C(=O)Nc1ccc(O)cc1	6.6	-0.22
Cc1ccc2c(CC(=O)OC(C)C(=O)Nc3ccc4c(c3)OCCO4)coc2c1 (stereo unspecified)	-1.7	/
CNC(=O)Nc1cc(C(F)(F)F)cc(C(F)(F)F)c1	1.3	/
CC(C)NCC(O)COc1ccccc1 (stereo unspecified)	-2.0	2
C=CCN(C(=O)Cc1c(C)noc1C)c1nc(-c2ccc(S(C)(=O)=O)cc2)cs1	-3.3	/
Cc1n[nH]c(C)c1Br	-9.9	0.15
Brc1cc(Br)c2ncc(-c3ccc4ccccc4n3)cc2c1	0.6	/
O=C(Nc1ccc(N2CCN(Cc3ccccc3)CC2)cc1)c1ccccc1F	-1.1	-0.085
CC(=O)N1CC(C)Oc2ccc(S(=O)(=O)Nc3ccccc3C)cc21 (stereo unspecified)	0.0	-1.6
COc1ccc(C(=O)c2ccc(C)cc2)cc1	0.8	-0.0005
O=C(CC(c1cccs1)N1Cc2ccccc2C1=O)NCc1ccc(CN2CCOCC2)o1 (stereo unspecified)	0.4	-1
C=CCn1c(C)cc(C(=O)COC(=O)c2oc3ccccc3c2COC)c1C	-2.8	/
COC(=O)c1c(-c2c(Cl)cccc2Cl)noc1NC(=O)NN1CCOCC1	0.9	-0.92
CC(C)(C)NC(=S)Nc1ccccc1C(F)(F)F	0.1	/
CC1CCCCC1NS(=O)(=O)c1cccc2nsnc12 (stereo unspecified)	1.9	0.73
CCOC(=O)c1cc2nc(Nc3ccc(OC)cc3)sc2s1	-9.1	1.4
CCc1ccc(NC(=NC)c2ccco2)cc1	-0.4	/
COc1cccc(CNC(=O)c2cccc(S(=O)(=O)N3CC(C)OC(C)C3)c2)c1 (stereo unspecified)	1.3	/
O=c1oc2ccccc2cc1-c1nc(-c2ccc(C(F)(F)F)cc2)no1	0.1	-0.85
COc1ccc(CNC(=O)C(OC(=O)c2ccco2)c2ccc(C)cc2)cc1 (stereo unspecified)	0.4	-0.8
Cc1ccc(C(C#N)CC(=O)c2ccc(Cl)cc2)cc1 (stereo unspecified)	/	-0.37
Cc1cnc(C(=O)OC(C)C(=O)Nc2cccc(C(F)(F)F)c2)cn1 (stereo unspecified)	3.2	/
C/C(=N/NC(=O)CC1N=C(Cc2ccccc2)NNC1=O)c1ccco1 (stereo unspecified)	-0.7	0.62
c1ccc2[nH]c(CN3CCCCC3)nc2c1	-0.2	0.32
COc1cccc2cc(C#N)c(=N)oc12	-2.1	/
CC(=O)Nc1nnc(CCS(=O)(=O)c2ccc(C)cc2)s1	3.1	/
CN(C(=O)c1cccc(S(=O)(=O)N2CCCCC2)c1)c1ccccc1	1.2	0.11
COc1ccc(-c2cnnc(N/N=C/c3c(C)[nH]n(-c4ccccc4)c3=O)n2)cc1	5.6	-0.17
CC1CC(=O)CCN1C(=O)c1ccccc1 (stereo unspecified)	5.7	0.27
CCCc1cc(=O)[nH]c(SCc2nc(N)nc(Nc3ccccc3C)n2)n1	-0.7	/

(list continues)
SMILES	BasE inh	LANA-nucl inh
CCC1CCCCN1C(=O)CSc1nc2c(c(=O)[nH]1)CCC2 (stereo unspecified)	-0.8	-0.3
COc1ccc(S(=O)(=O)N2CCN(C(=O)c3ccco3)CC2)cc1OC	3.4	0.25
COc1cc(OC)cc(C(=O)Nc2cccc(-c3nc4cc(C)cc(C)c4o3)c2C)c1	1.0	-1.7
CCOC(=O)C1=C(CC)Nc2ccccc2N=C1NC(=O)C1CCCO1 (stereo unspecified)	0.0	/
